Source: PubChem
c-Myc SMM: binds human c-Myc on microarray; P01106; small molecule microarray, His-c-Myc binding, anti-His fluorescence; calls only; actives 1.5% (n = 17,000);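 active means spot fluorescence over background with P-value below 7% in all four replicate spots, showing protein binding; compounds were printed on slides so no solution concentration is given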;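 further: score is binary with 100 for all four spots passing and 0 otherwise; about 2 pmol printed per array spot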
Target sequence (P01106 whole entry, looked up): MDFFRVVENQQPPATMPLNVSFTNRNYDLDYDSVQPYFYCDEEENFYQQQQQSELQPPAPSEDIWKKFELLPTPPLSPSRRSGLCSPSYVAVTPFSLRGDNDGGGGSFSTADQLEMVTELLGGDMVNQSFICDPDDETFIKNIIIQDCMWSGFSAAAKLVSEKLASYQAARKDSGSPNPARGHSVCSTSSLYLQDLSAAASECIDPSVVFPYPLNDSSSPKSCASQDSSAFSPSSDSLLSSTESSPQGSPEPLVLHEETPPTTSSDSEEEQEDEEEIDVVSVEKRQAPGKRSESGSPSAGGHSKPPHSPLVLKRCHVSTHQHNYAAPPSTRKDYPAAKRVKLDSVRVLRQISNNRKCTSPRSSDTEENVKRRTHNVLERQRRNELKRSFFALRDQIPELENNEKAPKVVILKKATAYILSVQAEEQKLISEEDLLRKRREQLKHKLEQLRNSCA
STAT3 SMM: STAT3 (human) binding | P40763 | Small molecule microarray, His-STAT3 binding, anti-His fluorescence | calls only | actives 0.2% (n = 17,000);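 active means compounds whose four printed spots each show fluorescence over background unusually high for their array block, chance value under 7%; compounds were printed on slides so no solution concentration is given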;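 further: about 2 pmol printed per array spot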
p53 mut binder: binds human mutant p53 on microarray; actives 0.4% (n = 17,000); AID 624136; calls only; small molecule microarray binding, anti-GST fluorescence;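 active means compounds whose four printed spots each glow above background more than chance allows, each with a p-value under 7%; compounds were printed on slides so no solution concentration is given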;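 further: about 2 pmol printed per array spot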
ID4 binder: binds human ID4 protein on microarray. P47928. small molecule microarray, Flag-ID4 binding, fluorescence F/B. calls only. actives 1.2% (n = 31,000). AID 624137;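 active means spot signal over background at p below 0.07 in all four prints; compounds were printed on slides so no solution concentration is given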;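 further: a binder raises fluorescence above local background on the spot; about 2 pmol printed per array spot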
Target sequence (P47928 whole entry, looked up): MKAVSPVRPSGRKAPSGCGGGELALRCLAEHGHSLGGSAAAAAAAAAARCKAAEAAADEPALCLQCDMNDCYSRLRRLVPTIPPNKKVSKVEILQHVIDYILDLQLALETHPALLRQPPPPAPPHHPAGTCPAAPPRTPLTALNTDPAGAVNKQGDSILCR
Calls only; i = inactive; / = not tested or not shown. These rows are one share of the data (hit frequency here may not be typical).

Letters – A = c-Myc SMM; B = STAT3 SMM; C = p53 mut binder; D = ID4 binder
#1 CCN1C[C@]2(COC)CCC(OC)[C@@]34C5C[C@]6(O)[C@H](OC(=O)c7ccc(OC)cc7)C5[C@@](OC(C)=O)(C[C@H]6OC)[C@@H]([C@H](OC)C23)[C@@H]14 (some centres not stated)
  A = i | B = i | C = i | D = i

#2 C[C@H]1O[C@@H](O[C@H]2CC[C@]3(CO)C4CC[C@]5(C)[C@@H](C6=CC(=O)OC6)CC[C@]5(O)C4CC[C@H]3C2)[C@H](O)[C@H](O)[C@@H]1O (some centres not stated)
  A = i | B = i | C = i | D = i

#3 C[C@@H]1O[C@@H](O[C@@H]2C=C3CC[C@@H]4C(C[C@@H](O)[C@]5(C)[C@@H](c6ccc(=O)oc6)CC[C@]45O)[C@@]3(C)CC2)[C@H](O)[C@H](O)[C@H]1O[C@@H]1O[C@H](CO)[C@@H](O)[C@H](O)[C@H]1O (some centres not stated)
  A = i | B = i | C = i | D = i

#4 COC(=O)[C@@]12C(=O)C(C)C(=O)[C@]1(C)C(C)=C[C@H]1[C@]3(C=O)CC[C@H](OC(C)=O)C(C)(C)[C@H]3CC[C@@]12C (some centres not stated)
  A = i | B = i | C = i | D = i

#5 O=[N+]([O-])c1ccc(O)c([N+](=O)[O-])c1
  A = i | B = i | C = i | D = i

#6 CCC1=CC2CN3CCc4c([nH]c5ccccc45)[C@@](C(=O)OC)(C2)[C@@H]13
  A = i | B = i | C = i | D = /

#7 CC(C)=CCc1c(O)cc2c(c1O)C(=O)CC(c1ccc(O)cc1)O2 (configuration not stated)
  A = i | B = i | C = i | D = i

#8 CC[C@@]1(O)C(=O)OCc2c1cc1n(c2=O)Cc2cc3c(O)cccc3nc2-1
  A = i | B = i | C = i | D = /

#9 CS(=O)(=O)Nc1ccc(Cc2noc(-c3ccc4[nH]cc(CCN)c4c3)n2)cc1
  A = i | B = i | C = i | D = i

#10 CC(C)(C)c1cc(C=C(C#N)C#N)cc(Br)c1O
  A = i | B = i | C = i | D = /

#11 CC(C)c1cc2c(cc1O)[C@@]1(C)CCCC(C)(C)[C@@H]1CC2
  A = i | B = i | C = i | D = /

#12 C#CCN1C(C)=C(C(=O)CCO)C(c2cccc(-n3oo3)c2)C(C(=O)OC)=C1C (configuration not stated)
  A = i | B = i | C = i | D = i

#13 O=C(Nc1ccc2c(C(F)(F)F)cc(=O)oc2c1)c1nc2ncccn2n1
  A = i | B = i | C = i | D = i

#14 C=CCN1C[C@H](C)N([C@H](c2ccc(C(=O)N(CC)CC)cc2)c2cccc(O)c2)C[C@H]1C
  A = i | B = i | C = i | D = i

#15 Cc1ccc(OC(=O)N(C)C[C@@H]2OCc3cnnn3CCCC(=O)N([C@@H](C)CO)C[C@H]2C)cc1
  A = i | B = i | C = i | D = i

#16 Cc1cccc(N2C(=O)NC(=O)C(CCc3ccncc3)(CCc3ccncc3)C2=O)c1
  A = i | B = i | C = i | D = i

#17 C=C[C@@]12CN(C)[C@H]3[C@H]1[C@@]1(C(=O)Nc4ccccc41)C1CC2[C@@H]3CO1
  A = i | B = i | C = i | D = i

#18 COC(/C=C/CC/C=C/C(=O)O)C(O)C(C)C(O)/C(C)=C/C(C)C(=O)CCCC1CC(=O)NC(=O)C1 (configuration not stated)
  A = i | B = i | C = i | D = i

#19 CC(=O)c1cccc(NC(=O)CSC2c3ccccc3-c3ccccc32)c1
  A = i | B = i | C = i | D = i

#20 C[C@H]1CCCC(=O)CCC/C=C/c2cc(O)cc(O)c2C(=O)O1
  A = i | B = i | C = i | D = /

#21 COc1ccc(/C=C/c2cc(O)cc(O)c2)cc1
  A = i | B = i | C = i | D = i

#22 O=[N+]([O-])c1ccc2nc(N3CCNCC3)ccc2c1
  A = i | B = i | C = i | D = i

#23 CN1C2CCCC1CC(=O)C2
  A = i | B = i | C = i | D = i

#24 COC1=CC(=O)OC(/C=C/c2ccccc2)C1 (configuration not stated)
  A = i | B = i | C = i | D = i

#25 C=CCN1C[C@H](C)N([C@@H](c2ccccc2)c2ccc(C(=O)N(CC)CC)cc2)C[C@H]1C
  A = i | B = i | C = i | D = i

Random excerpt: four records from the list.
Letters – A = c-Myc SMM; B = STAT3 SMM; C = p53 mut binder; D = ID4 binder
#8 CC[C@@]1(O)C(=O)OCc2c1cc1n(c2=O)Cc2cc3c(O)cccc3nc2-1
  A = i | B = i | C = i | D = /

#1 CCN1C[C@]2(COC)CCC(OC)[C@@]34C5C[C@]6(O)[C@H](OC(=O)c7ccc(OC)cc7)C5[C@@](OC(C)=O)(C[C@H]6OC)[C@@H]([C@H](OC)C23)[C@@H]14 (some centres not stated)
  A = i | B = i | C = i | D = i

#24 COC1=CC(=O)OC(/C=C/c2ccccc2)C1 (configuration not stated)
  A = i | B = i | C = i | D = i

#25 C=CCN1C[C@H](C)N([C@@H](c2ccccc2)c2ccc(C(=O)N(CC)CC)cc2)C[C@H]1C
  A = i | B = i | C = i | D = i

Next section:
Letters – A = c-Myc SMM; B = STAT3 SMM; C = p53 mut binder; D = ID4 binder
#26 C=CCN1C(=S)N[C@@H]2c3ccccc3O[C@@]1(C)[C@@H]2C(=O)OCC
  A = i | B = i | C = i | D = i

#27 C#C[C@]1(O)CC[C@H]2[C@@H]3CCC4=CC(=O)CC[C@]4(C)[C@H]3CC[C@@]21C
  A = i | B = i | C = i | D = i

#28 O[C@@H]1CCCC[C@H]1N1CCC(c2ccccc2)CC1
  A = i | B = i | C = i | D = i

#29 CC1(CCO)CC(C)(CCc2ccccc2)OO1 (configuration not stated)
  A = i | B = i | C = i | D = i

#30 CCCN1CCc2cc(O)cc3c2[C@H]1Cc1ccc(O)c(O)c1-3
  A = i | B = i | C = i | D = i

#31 CN[C@@H]1C[C@H]2O[C@@](C)([C@@H]1OC)n1c3ccccc3c3c4c(c5c6ccccc6n2c5c31)C(=O)NC4
  A = i | B = i | C = i | D = /

#32 Cc1ccc(OC(=O)N(C)C[C@H]2OCc3cnnn3CCCC(=O)N([C@@H](C)CO)C[C@H]2C)cc1
  A = i | B = i | C = i | D = i

#33 CC(C(=O)Nc1ccc(Cl)cc1C(=O)c1ccccc1)N1C(=O)C2C3C=CC(C3)C2C1=O (configuration not stated)
  A = i | B = i | C = i | D = i

#34 C[C@@]1(C(=O)O)CC[C@]2(C)CC[C@]3(C)C4=CC(=O)c5cc(O)c(O)cc5[C@]4(C)CC[C@@]3(C)[C@@H]2C1
  A = i | B = i | C = i | D = /

#35 CC(=O)OC1CCC2(C)C(CC[C@@H]3[C@@H]2CCC2(C)C(C4=CC(=O)OC4)CCC32O)C1 (some centres not stated)
  A = i | B = i | C = i | D = i

#36 CC(C)c1cc2c(cc1O)[C@@]1(C)C[C@@H](O)CC(C)(C)C1CC2 (some centres not stated)
  A = i | B = i | C = i | D = i

#37 Oc1ccc2c3c1OC1c4[nH]c5ccccc5c4CC4(O)C(C2)N(CC2CC2)CCC314 (configuration not stated)
  A = i | B = i | C = i | D = i

#38 CC(C)(O)CCC(=O)[C@](C)(O)[C@H]1[C@H](O)C[C@@]2(C)[C@@H]3CC=C4C(C=C(O[C@@H]5O[C@H](CO)[C@@H](O)[C@H](O)[C@H]5O)C(=O)C4(C)C)[C@]3(C)C(=O)C[C@]12C (some centres not stated)
  A = i | B = i | C = i | D = i

#39 Cc1ccc(OC(=O)N(C)C[C@H]2OCc3cnnn3CCCC(=O)N([C@H](C)CO)C[C@H]2C)cc1
  A = i | B = i | C = i | D = i

#40 N#CC(C#N)=NNc1cccc(Cl)c1
  A = i | B = i | C = i | D = i

#41 CCCOC(=O)c1cc2c(cn1)[nH]c1ccccc12
  A = i | B = i | C = i | D = i

#42 C/C=C(\C)C(=O)O[C@H]1CC2C(=C1C)[C@H]1OC(=O)[C@](C)(O)[C@]1(O)[C@H](OC(=O)CCC)C[C@@]2(C)OC(C)=O (some centres not stated)
  A = i | B = i | C = i | D = /

#43 CCCCC1(C2CCCC2)Cc2cc(OCCCC(=O)O)c(Cl)c(Cl)c2C1=O (configuration not stated)
  A = i | B = i | C = i | D = i

#44 CC[C@@H]1/C=C\C=C\C[C@H](C)[C@@H](O)[C@](C)(O)C(=O)[C@H](C)[C@@H](O)[C@H](C)C(=O)[C@H](C)[C@@H](O)[C@H](C)/C=C/C(=O)O[C@H]2[C@@H](C)[C@@H](CC1)O[C@@]1(CC[C@@H](C)[C@@H](C[C@H](C)O)O1)[C@@H]2C
  A = i | B = i | C = i | D = /

#45 COc1ccccc1OCCCn1cc(C(=O)C(C)(C)C)c2ccccc21
  A = i | B = i | C = i | D = i

#46 COC(=O)c1c(C)n(CCCOC(C)C)c2c1cc(O)c1ccccc12
  A = i | B = i | C = i | D = i

#47 OC[C@H]1O[C@@H](Oc2ccc(/C=C/c3cc(O)cc(O)c3)cc2O)[C@H](O)[C@@H](O)[C@@H]1O
  A = i | B = i | C = i | D = /

#48 CC(C)(CN)CNc1ccc([N+](=O)[O-])c2cccnc12
  A = i | B = i | C = i | D = i

#49 CC[C@]12C=CCN3CC[C@@]4(c5ccc(OC)cc5N(C)[C@H]4[C@@](O)(C(=O)OC)[C@@H]1OC(C)=O)[C@@H]32
  A = i | B = i | C = i | D = /

#50 COc1ccc(OC(=O)N(C)C[C@H]2OCc3cnnn3CCCC(=O)N([C@H](C)CO)C[C@@H]2C)cc1
  A = i | B = i | C = i | D = /

An excerpt of these results, field by field.
[38] CC(C)(O)CCC(=O)[C@](C)(O)[C@H]1[C@H](O)C[C@@]2(C)[C@@H]3CC=C4C(C=C(O[C@@H]5O[C@H](CO)[C@@H](O)[C@H](O)[C@H]5O)C(=O)C4(C)C)[C@]3(C)C(=O)C[C@]12C (some centres not stated)
  c-Myc SMM: i	STAT3 SMM: i	p53 mut binder: i	ID4 binder: i
[39] Cc1ccc(OC(=O)N(C)C[C@H]2OCc3cnnn3CCCC(=O)N([C@H](C)CO)C[C@H]2C)cc1
  c-Myc SMM: i	STAT3 SMM: i	p53 mut binder: i	ID4 binder: i
[40] N#CC(C#N)=NNc1cccc(Cl)c1
  c-Myc SMM: i	STAT3 SMM: i	p53 mut binder: i	ID4 binder: i
[41] CCCOC(=O)c1cc2c(cn1)[nH]c1ccccc12
  c-Myc SMM: i	STAT3 SMM: i	p53 mut binder: i	ID4 binder: i

(list continues)
Letters – A = c-Myc SMM; B = STAT3 SMM; C = p53 mut binder; D = ID4 binder
#51 COc1ccc2c(c1O)-c1cc(O)cc3c1[C@@H](C2)N(C)CC3
  A = i | B = i | C = i | D = i

#52 C/C=C1/C[N+]2([O-])C3CC1C(CO)C2Cc1c3[nH]c2ccc(OC)cc12 (configuration not stated)
  A = i | B = i | C = i | D = /

#53 COc1ccc(CN2CCNCC2)c(OC)c1OC
  A = i | B = i | C = i | D = i

#54 CC(C(=O)OC1CC2CCC(C1)N2C)c1ccc(Br)cc1 (configuration not stated)
  A = i | B = i | C = i | D = i

#55 O=C(/C=C/c1ccccc1)OCC1OC(OC2OC=CC3C(O)C4OC4(CO)C23)C(O)C(O)C1O (configuration not stated)
  A = i | B = i | C = i | D = i

#56 COC1=CC23CCN(C)[C@H](Cc4cc(OC)c(OC)cc42)C3=CC1=O
  A = i | B = i | C = i | D = i

#57 COC(C/C=C/C=C/CC/C=C\CC(C)/C=C\C(=C/C(=O)O)CC(=O)O)/C(C)=C\C=C(/C)C(=O)O (configuration not stated)
  A = i | B = i | C = i | D = i

#58 CC(=O)O[C@@H](c1nc2ccccc2c(=O)n1[C@@H]1C[C@@]2(OC1=O)c1ccccc1N1C(=O)[C@H](C)N(O)[C@@H]12)C(C)C
  A = i | B = i | C = i | D = i

#59 COc1ccc(CCNCc2cccnc2)cc1OC
  A = i | B = i | C = i | D = i

#60 CN1C(=O)c2ccccc2NC(=O)[C@]12O[C@@H]2c1ccccc1
  A = i | B = i | C = i | D = i

#61 CN1CCN(C(=O)OC2c3nccnc3C(=O)N2c2ccc(Cl)cn2)CC1 (configuration not stated)
  A = i | B = i | C = i | D = i

#62 CC[C@H]1CN2CC[C@H]1C[C@@H]2[C@@H](O)c1ccnc2ccc(OC)cc12
  A = i | B = i | C = i | D = /

#63 COc1cc2c(c(OC)c1OC)-c1ccc(O)c(=O)cc1[C@@H](N)CC2
  A = i | B = i | C = i | D = /

Results in c-Myc SMM and p53 mut binder, for three of the compounds above:
cpd | structure | c-Myc SMM | p53 mut binder
63 | COc1cc2c(c(OC)c1OC)-c1ccc(O)c(=O)cc1[C@@H](N)CC2 | i | i
58 | CC(=O)O[C@@H](c1nc2ccccc2c(=O)n1[C@@H]1C[C@@]2(OC1=O)c1ccccc1N1C(=O)[C@H](C)N(O)[C@@H]12)C(C)C | i | i
54 | CC(C(=O)OC1CC2CCC(C1)N2C)c1ccc(Br)cc1 (configuration not stated) | i | i
